VDR inhibitor: blocks the human vitamin D receptor | 400,000 compounds, 0.93% hits | Potency, µM, for inactives: max response, negative = inhibition, usual class: inhibitors | VDR-SRC2-3 peptide fluorescence polarization, 2 h | P11473; active means well fitted inhibition curve with a large enough effect; inconclusive means small, poorly fitted or top-dose-only effect, or another doubt; inactive means no such curve, though single readings can be large or run the other way; further: series mostly up to about 120 µM
Target sequence (P11473 whole entry, looked up): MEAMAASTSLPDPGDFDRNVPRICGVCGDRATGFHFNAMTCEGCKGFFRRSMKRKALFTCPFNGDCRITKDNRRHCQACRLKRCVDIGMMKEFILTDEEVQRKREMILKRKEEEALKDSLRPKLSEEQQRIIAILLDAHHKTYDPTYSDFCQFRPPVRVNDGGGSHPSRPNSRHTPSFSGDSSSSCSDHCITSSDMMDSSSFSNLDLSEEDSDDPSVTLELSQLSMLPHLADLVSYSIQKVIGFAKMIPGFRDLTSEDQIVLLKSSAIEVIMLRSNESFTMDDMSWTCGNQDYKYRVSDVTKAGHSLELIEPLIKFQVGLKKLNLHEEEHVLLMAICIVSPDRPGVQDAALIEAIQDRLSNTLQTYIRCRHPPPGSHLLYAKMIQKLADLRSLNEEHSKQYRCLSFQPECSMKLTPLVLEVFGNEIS
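The screen uses fluorescence polarization to detect compounds that interfere with recruitment of the SRC2-3 coactivator peptide to VDR; plates are read after 2 h at room temperature.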
Active calls of the source: *; & = joins results of further samples. On the % scale 0 is the no-effect control and ±100 the full control effect; potency means the concentration at half of the fitted maximal effect. The list is partial. The share of hits here may be higher or lower than overall.

Sample of the layout, seven compounds:
Cc1ccc(NC(=S)N2CCC(NC(=O)c3ccco3)CC2)cc1C was read as VDR inhibitor -3.3%.
Screening CC(=O)c1ccc(N2CCN(C(=O)CNS(=O)(=O)c3ccc4c(c3)OCCCO4)CC2)c(F)c1 returned VDR inhibitor -17.2%.
For Cc1ccc(CNc2nc3c(S(=O)(=O)c4ccc(C)c(C)c4)nnn3c3ccc(Cl)cc23)cc1 the results were VDR inhibitor -4.7%.
Screening Cc1ccc(S(=O)(=O)c2c(C)nn(C(C)(C)C)c2OC(=O)C(C)(C)C)cc1 returned VDR inhibitor -5.1%.
`O=C(O)c1ccccc1-c1nc2ccccc2n1-c1ccccc1` gave VDR inhibitor -12.6%.
For COc1ccc(S(=O)(=O)N2CCCOC2CNC(=O)C(=O)NCCCN2CCOCC2)cc1 (configuration not stated) the results were VDR inhibitor -6.2%.
Screening NC(=O)c1ccc(NC(=O)COC(=O)CNC(=O)c2sc3ccccc3c2Cl)cc1 returned VDR inhibitor 9.8%.

The list itself, repeating the preview:
Cc1ccc(NC(=S)N2CCC(NC(=O)c3ccco3)CC2)cc1C was read as VDR inhibitor -3.3%.
Screening CC(=O)c1ccc(N2CCN(C(=O)CNS(=O)(=O)c3ccc4c(c3)OCCCO4)CC2)c(F)c1 returned VDR inhibitor -17.2%.
For Cc1ccc(CNc2nc3c(S(=O)(=O)c4ccc(C)c(C)c4)nnn3c3ccc(Cl)cc23)cc1 the results were VDR inhibitor -4.7%.
Screening Cc1ccc(S(=O)(=O)c2c(C)nn(C(C)(C)C)c2OC(=O)C(C)(C)C)cc1 returned VDR inhibitor -5.1%.
`O=C(O)c1ccccc1-c1nc2ccccc2n1-c1ccccc1` gave VDR inhibitor -12.6%.
For COc1ccc(S(=O)(=O)N2CCCOC2CNC(=O)C(=O)NCCCN2CCOCC2)cc1 (configuration not stated) the results were VDR inhibitor -6.2%.
Screening NC(=O)c1ccc(NC(=O)COC(=O)CNC(=O)c2sc3ccccc3c2Cl)cc1 returned VDR inhibitor 9.8%.
For O=C(CNC(=O)Cc1ccccc1)NCC(=O)OCc1ccc(C(=O)c2ccccc2)cc1 the results were VDR inhibitor -6.2%.
O=C(Oc1ccc(Br)cc1C(=S)N1CCCC1)c1ccccc1F was read as VDR inhibitor -14.4%.
CCc1cccc(NC(=O)CCCn2c(=O)[nH]c3ccsc3c2=O)c1 was read as VDR inhibitor -16.1%.
For O=C(O)CC(NNC(=O)c1ccccc1)C(=O)Nc1cccc([N+](=O)[O-])c1 (configuration not stated) the results were VDR inhibitor -1.3%.
`CCOC(=O)N1CCN(C(=O)CS(=O)(=O)c2cn(Cc3ccccc3C)c3ccccc23)CC1` gave VDR inhibitor 0.7%.
Screening CCc1nn(CC(=O)NCCc2ccc(SC)cc2)c(=O)c2cc3sccc3n12 returned VDR inhibitor 10.1%.
`COc1ccc(S(=O)(=O)/N=C2/NC(=O)/C(=C\c3cc(OC)c(OC)cc3[N+](=O)[O-])S2)cc1` gave VDR inhibitor -15.4%.
For CN1CCN(c2ncc3nc(-c4cn(C)c5ccccc45)c(=O)n(-c4ccccc4)c3n2)CC1 the results were VDR inhibitor inconclusive.
For O=C1Cc2ccccc2C(=O)N1CCc1ccccc1 the results were VDR inhibitor -26.8%.
Screening Cc1cccc(C)c1NC(=O)COC(=O)c1ccc2[nH]c3c(c2c1)CCCC3 returned VDR inhibitor 8.6%.
For CCN1C(=O)[C@H]2[C@@H](c3ccc(-c4cc(C(C)=O)cs4)cc3)N[C@@](Cc3ccccc3)(C(=O)OC)[C@H]2C1=O the results were VDR inhibitor 2.9%.
Screening CCCCN(CC)CCNc1ncnc2onc(-c3ccc(Cl)cc3)c12 returned VDR inhibitor -5.8%.
Screening COc1ccccc1NS(=O)(=O)c1ccc(C(=O)N2CC(C)OC(C)C2)cc1 (configuration not stated) returned VDR inhibitor 5.5%.
O=C(OCC1CCCO1)c1ccc2c(c1)N(Cc1ccccc1F)C(=O)c1ccccc1S2(=O)=O (configuration not stated) was read as VDR inhibitor 3.7%.
`CCOC(=O)CC(NC(=O)c1cc2ccccc2oc1=O)c1cccc([N+](=O)[O-])c1` (configuration not stated) gave VDR inhibitor -9.0%.
`Cc1ccc(C2C(C#N)=C(N)Oc3nc(-c4ccccc4)[nH]c32)o1` (configuration not stated) gave VDR inhibitor -11.7%.
O=C(NCC1CCCO1)C(c1cccnc1)N(C(=O)Cc1cccs1)c1ccccc1 (configuration not stated) was read as VDR inhibitor 8.8%.
For COc1ccc(OC)c(Nc2ncc3c(n2)CCN(Cc2cc(OC)c(OC)c(OC)c2)C3)c1 the results were VDR inhibitor 20.0%.
Screening CCc1ccc(C2=C(C)C(N3CCC(C(=O)Nc4ccc(F)cc4)CC3)=NS2(=O)=O)cc1 returned VDR inhibitor 0.6%.
Cc1nc2ccc(C(=O)N/N=C/c3ccc(O)cc3)cc2[nH]1 was read as VDR inhibitor -8.4%.
CC(C)C(C)(C#N)NC(=O)COC(=O)C1CCN(S(=O)(=O)c2ccc3c(c2)OCCO3)CC1 (configuration not stated) was read as VDR inhibitor -13.8%.
For CNS(=O)(=O)c1cccc(C(=O)OCC(=O)N2CCc3ccccc3C2)c1 the results were VDR inhibitor 8.8%.
`CC(C)NC(=O)N1CCC2(CC1)CCN(S(=O)(=O)c1ccccc1)CC2` gave VDR inhibitor -4.2%.
Screening Nc1c(C(=O)N/N=C/c2ccc(OCc3ccccc3)cc2)cnn1-c1ccccc1 returned VDR inhibitor -12.6%.
Screening CC(OC(=O)C1CCCC1)C(=O)Nc1ncc(Cl)cc1Cl (configuration not stated) returned VDR inhibitor -0.5%.
For CCn1ncc(/C=C2/SC(=S)NC2=O)c1C the results were VDR inhibitor -1.2%.
For Cc1ccc(OC(=O)c2sc3ncn(C)c(=O)c3c2C)cc1 the results were VDR inhibitor -2.2%.
CCOc1ccc(S(=O)(=O)N2CCOCC2)cc1NC(=O)CN1C(=O)NC(CC)(c2ccccc2)C1=O (configuration not stated) was read as VDR inhibitor -4.2%.
For CC(O/N=C/c1ccc(OC(F)F)cc1)C(=O)Nc1cccc(S(=O)(=O)N2CCOCC2)c1 (configuration not stated) the results were VDR inhibitor -15.9%.
CN(C(=O)c1oc(=O)c2ccccc2c1-c1ccccc1)c1cccc(Cl)c1 was read as VDR inhibitor -2.3%.
Screening O=C(c1noc2c1CCCCC2)N1CCN(c2cccc(Cl)c2)CC1 returned VDR inhibitor 16.2%.
Cc1cc(S(=O)(=O)N(Cc2ccccc2F)C2CC2)ccc1-n1cnnn1 was read as VDR inhibitor -4.5%.
For Cc1ccccc1-c1nc(CS(=O)(=O)CC(=O)N2CCCCC2)c(C)o1 the results were VDR inhibitor -7.2%.
For Cn1c(=O)n(Cc2ccccc2Cl)c2ccccc21 the results were VDR inhibitor inconclusive.
`COc1ccc2oc(-c3ccc(C)c(NC(=O)c4ccc(N5CCCCC5)c([N+](=O)[O-])c4)c3)nc2c1` gave VDR inhibitor -2.1%.
For CCOC(=O)CC1=C(C(=O)OCC)C(c2cc(OC)c(OC)cc2OC)C(C#N)=C(N)O1 (configuration not stated) the results were VDR inhibitor -0.7%.
NC(=O)C1CCCN(C(=O)c2ccc(S(=O)(=O)N3CCCCCC3)cc2)C1 (configuration not stated) was read as VDR inhibitor -11.2%.
`CC(C)NC(=O)COC(=O)c1cc(=O)[nH]c2ccccc12` gave VDR inhibitor 23.6%.
`COc1cccc2c1Oc1ncccc1N(C(=O)CCC(=O)NCc1ccc(OC(C)C)cc1)C2` gave VDR inhibitor -0.6%.
For N#Cc1ccc(-c2cn(-c3ccccc3)c3[n+]2CCCS3)cc1 the results were VDR inhibitor 3.8%.
For CCOc1ccc(OCCOCCn2c(-c3ccc(Cl)cc3)nc3ccccc3c2=O)cc1 the results were VDR inhibitor -12.6%.
Screening CNC(=O)CSc1nnc(-c2ccco2)n1-c1cc(C)ccc1C returned VDR inhibitor 5.7%.
For O=C(CCc1nnc(CCCCc2ccccc2)o1)NCCN1CCOC1=O the results were VDR inhibitor 2.7%.
Screening CCCCNC(=O)CCC(=O)Nc1ccc2nc(N3CCOCC3)cc(C)c2c1 returned VDR inhibitor 6.7%.
For O=C(NC1CCCCC1)c1cc(-c2ccco2)on1 the results were VDR inhibitor -1.2%.
Cc1nc2sc(C(c3ccco3)N3CCC(C)CC3)c(O)n2n1 (configuration not stated) was read as VDR inhibitor -20.2%.
For CCC(=O)Nc1nnc(S(=O)(=O)N(C)Cc2ccc(Cl)cc2)s1 the results were VDR inhibitor -4.1%.
COCCCN1C(=O)N(c2ccc(F)cc2)C(=O)C1CC(=O)Nc1ccc(OC)cc1 (configuration not stated) was read as VDR inhibitor -13.1%.
`Cc1c(C(=O)O)oc2ccc(S(=O)(=O)NCc3ccccc3)cc12` gave VDR inhibitor 19.9%.
For COc1ccc(C(=O)NCCSc2ccccn2)cc1 the results were VDR inhibitor 4.8%.
For Cc1ccc(C(=O)N2CCCCCC2)cc1S(=O)(=O)N1CCOCC1 the results were VDR inhibitor -9.8%.
Cc1ccc(NC(=O)CSc2ncc(S(=O)(=O)c3ccc(C(C)C)cc3)c(=O)[nH]2)cc1C was read as VDR inhibitor inconclusive.
`CCOC(=O)c1oc2ccccc2c1CN1CC(C)OC(C)C1` (configuration not stated) gave VDR inhibitor -2.2%.
Screening Cc1ccc(CCNC(=O)C2CCCN(S(C)(=O)=O)C2)cc1 (configuration not stated) returned VDR inhibitor -2.7%.
CC(C)c1ccc(N)c(S(=O)(=O)O)c1 was read as VDR inhibitor 5.5%.
For CC(=O)c1ccc(NC(=O)CSc2nnc(NC(=O)Nc3ccccc3)s2)cc1 the results were VDR inhibitor 6.3%.
COc1ccc(Cn2c(CCC(=O)Nc3ccccc3OC)nc3cccnc32)cc1 was read as VDR inhibitor -0.7%&-2.8%.
Screening Cc1ccc(N2CC(O)(c3cccs3)[N+]3=C2CCCC3)cc1 (configuration not stated) returned VDR inhibitor -12.0%.
Screening CCOC(=O)c1c(C)n(C)c2ccc(O)cc12 returned VDR inhibitor 2.7%.
`COc1ccccc1NC(=S)NC(=O)CCc1ccccc1` gave VDR inhibitor inconclusive.
COCCNC(=O)c1onc(CS(=O)(=O)c2cc(C)cc(C)c2)c1C(=O)NCCOC was read as VDR inhibitor 7.3%.
For O=C(O)c1cc(NCc2c(F)cccc2Cl)ccc1N1CCOCC1 the results were VDR inhibitor -7.1%.
CCC(C)N(C)Cc1cccc(C2(O)CCN(S(=O)(=O)c3ccc(F)c(C)c3)CC2)c1 (configuration not stated) was read as VDR inhibitor -23.4%.
`Cc1cc(C)nc(NC(N)=NCCc2ccccc2)n1` gave VDR inhibitor -2.5%.
Screening COc1ccc(NS(=O)(=O)c2cn(C)c(=O)n(C)c2=O)cc1 returned VDR inhibitor 0.5%.
For O=C(NCCNC(=O)c1cc(OCC(F)(F)F)ccc1OCC(F)(F)F)Nc1ccc(Cl)cc1 the results were VDR inhibitor 10.1%.
Screening O=C(O)Cc1ccc(N=Nc2c(O)c(C(=O)O)cc3ccccc23)cc1 returned VDR inhibitor inconclusive.
`O=C(COc1ccc2ccccc2c1)NNC(=O)c1cnccn1` gave VDR inhibitor -7.2%.
CC1Cc2cc(/C(O)=C3/C(=O)C(=O)N(CCN4CCOCC4)C3c3ccc([N+](=O)[O-])cc3)ccc2O1 (configuration not stated) was read as VDR inhibitor -1.9%.
For COC(=O)C1OC1c1cc([N+](=O)[O-])ccc1OC (configuration not stated) the results were VDR inhibitor -7.0%.
COc1ccccc1CC(NC(C)=O)C(=O)NC1CCN(C(=O)c2ccc([N+](=O)[O-])cc2)CC1 (configuration not stated) was read as VDR inhibitor 5.2%.
`O=C(c1cccc([N+](=O)[O-])c1)N1CCN(c2ccccn2)CC1` gave VDR inhibitor 4.0%.
`CCC(CC)C(=O)c1c[nH]c(C(=O)NCc2cccnc2)c1` gave VDR inhibitor -17.2%.
O=C(NC(=S)Nc1ccc(Cl)c(C(=O)O)c1)c1cccc(COc2ccccc2)c1 was read as VDR inhibitor -16.2%.
For CCOC(=O)c1cc2occc2n1CC(=O)N1CCN(C(=O)c2ccco2)CC1 the results were VDR inhibitor 2.9%.
`O=C(CCc1ccccc1)N1CCN(c2ccc(F)cc2)CC1` gave VDR inhibitor 15.0%.
For CCC1OC23CCCCC2C(C#N)(C(=N)O3)C1(C#N)C#N (configuration not stated) the results were VDR inhibitor -16.7%.
For CCCCCCOc1ccc(C(CC(N)=O)C(=O)O)cc1 (configuration not stated) the results were VDR inhibitor 9.1%.
COc1ccc(/C=N/NC(=O)c2cccc(Br)c2)cc1Cn1cc(Cl)cn1 was read as VDR inhibitor -1.4%.
Screening COc1cccc(-c2nc(CS(=O)(=O)CC(=O)NCCN3CCOCC3)c(C)o2)c1 returned VDR inhibitor -1.0%.
For Cn1c(CNC(=O)C2CCCCC2)cc2ccccc21 the results were VDR inhibitor -10.8%.
O=C(CCC(=O)OCC(=O)c1ccc([N+](=O)[O-])cc1)Nc1ccccc1Cl was read as VDR inhibitor inconclusive.
`Oc1ccc(-c2nc(=S)[nH][nH]2)cc1` gave VDR inhibitor 8.4%.
`O=C(NCCSc1c(-c2ccc(Br)cc2)[nH]c2ccccc12)c1ccc(S(=O)(=O)N2CCOCC2)cc1` gave VDR inhibitor -22.3%.
For O=C(NCCCN1CCOCC1)c1cccc(S(=O)(=O)NCc2ccccc2)c1 the results were VDR inhibitor -14.7%.
Screening N/N=C(\c1ccccc1)c1cc(Cl)ccc1N returned VDR inhibitor -4.6%.
Screening Cc1ccc(OCc2nc(-c3ccccc3)no2)c(C)c1 returned VDR inhibitor -5.4%.
Screening COc1ccc(Nc2oc(COc3ccccc3F)nc2C#N)cc1 returned VDR inhibitor -17.5%.
Screening CC(=O)c1cccc(NC(=O)C(C)OC(=O)Cc2c[nH]c3ccccc23)c1 (configuration not stated) returned VDR inhibitor -4.0%.
`CN(Cc1ccccc1)C(=O)c1nn2cccnc2c1Cl` gave VDR inhibitor 6.8%.
Screening Cc1cc(C)c(C)c(OCCn2ccnc2)c1 returned VDR inhibitor -14.5%.
N#Cc1c(-c2cccs2)nc(SCc2ccc(Cl)cc2)[nH]c1=O was read as VDR inhibitor -5.0%.
